gsp ag: activates gsp, the McCune-Albright syndrome mutation; gsp mutant cells, cAMP HTRF, 30 min; control for the full effect not named in the record; Potency, µM (highest dose often 76.9 µM), inactives show at the top dose activation (cAMP increase), usual class: activators; 340,000 compounds, 0.13% hits; active = well fitted activation curve with a large enough effect; inconclusive = small, poorly fitted or top-dose-only effect, or another doubt; inactive = no such curve, though single readings can be large or run the other way; cell line not stated here;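 note: phosphodiesterase inhibitor Ro 20-1724 added with compounds to block cAMP breakdown; potency is the fitted concentration of half-maximal effect; nearly all actives have a fitted effect of over 60% in size; about a fifth of the inactives were tested at one dose only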
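Cells in DMEM/10% FBS with G418 were pretreated with compounds in DMSO plus […] (300 uM stock) for 30 min at 37C. cAMP was measured by HTRF (cAMP-d2 plus anti-cAMP antibody-K) after 30 min at room temperature.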
Six1-Eya2 blk: inhibitors of human Six1/Eya2 interaction | AlphaScreen GST-Six1/His-Eya2 binding, biochemical; stronger effect = lower value; control for the full effect not named in the record | activity change, % (test concentration not listed) | 360,000 compounds, 0.56% hits | AID 651725; in the data active = activity change below about -65%; inconclusive = about -30% to -65%; inactive = above about -30%; note: % is set by controls: 0 for no effect and ±100 for the full control effect
Target sequence (O00167 whole entry, looked up): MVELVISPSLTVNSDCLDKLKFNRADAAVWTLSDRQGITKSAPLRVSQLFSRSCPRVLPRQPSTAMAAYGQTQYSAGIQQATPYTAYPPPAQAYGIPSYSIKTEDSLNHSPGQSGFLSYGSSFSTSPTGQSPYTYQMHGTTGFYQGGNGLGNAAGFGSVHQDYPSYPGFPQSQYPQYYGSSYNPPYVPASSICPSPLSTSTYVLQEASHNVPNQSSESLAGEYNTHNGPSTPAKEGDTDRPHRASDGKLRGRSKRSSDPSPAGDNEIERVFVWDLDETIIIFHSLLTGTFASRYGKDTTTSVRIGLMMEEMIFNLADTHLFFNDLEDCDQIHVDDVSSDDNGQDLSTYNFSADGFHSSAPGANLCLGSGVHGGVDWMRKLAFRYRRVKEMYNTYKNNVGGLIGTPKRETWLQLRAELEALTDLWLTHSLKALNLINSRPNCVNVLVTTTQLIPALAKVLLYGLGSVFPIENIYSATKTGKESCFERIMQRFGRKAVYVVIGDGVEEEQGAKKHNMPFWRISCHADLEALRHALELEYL
Target sequence (Q15475 whole entry, looked up): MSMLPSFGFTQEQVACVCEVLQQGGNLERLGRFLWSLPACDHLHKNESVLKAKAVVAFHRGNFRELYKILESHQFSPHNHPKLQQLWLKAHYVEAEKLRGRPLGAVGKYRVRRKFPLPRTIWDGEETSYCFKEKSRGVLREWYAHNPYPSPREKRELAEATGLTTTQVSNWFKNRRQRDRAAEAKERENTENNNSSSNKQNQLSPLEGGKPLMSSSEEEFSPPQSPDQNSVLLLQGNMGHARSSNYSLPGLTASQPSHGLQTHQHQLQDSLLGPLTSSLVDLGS
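Compounds are tested against tagged Six1 and Eya2 proteins bridged by glutathione donor and nickel acceptor beads; after a one-hour incubation at 37 °C without light, AlphaScreen emission is recorded.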
D2 agonist: human D2 receptor agonism in beta-arrestin assay. P14416. 360,000 compounds, 0.084% hits. activation, % (concentration not given with the values). DiscoveRx PathHunter D2 beta-arrestin, luminescence, 90 min; 100% = 57 uM dopamine signal; in the data active = activation above about 40%; inconclusive = about 15% to 40%; inactive = below about 15%; note: the text of the record calls up to 30% inactive
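Agonist mode: compounds alone added to overnight-plated D2 PathHunter cells for 90 min at 37 C, with 57 uM final dopamine (EC100) defining full response. Beta-arrestin recruitment detected by chemiluminescent reagent, read after 1 h at ambient temperature.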
gsp antag: gsp mutant antagonism. gsp-mutant cells, cAMP HTRF, 30 min; control for the full effect not named in the record. Potency, µM (doses to about 76.9 µM), for inactives: at the highest dose activity change, negative = inhibition, most hits filed as inhibitors. 340,000 compounds, 0.4% hits; active = falling curve of any shape with a large fitted effect; inconclusive = falling curve, mostly with a smaller effect; inactive = flat or rising curve; cell line not stated here;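 note: intracellular cAMP measured with PDE inhibitor Ro 20-1724 present during compound exposure; potency is the fitted concentration of half-maximal effect; % is set by controls: 0 for no effect and ±100 for the full control effect; nearly all actives have a fitted effect of over 65% in size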
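Measurement of cellular cAMP by homogeneous time-resolved fluorescence following a 30 min compound exposure at 37C. The PDE inhibitor […] was present throughout; the assay buffer was DPBS with 0.05% BSA and 0.005% Tween 20.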
D2 PAM: potentiates the human D2 dopamine receptor allosterically | P14416 | DiscoveRx D2 beta-arrestin cells, luminescence, 90 min; 100% = 57 uM dopamine signal | potentiation, % (test concentration not listed) | 360,000 compounds, 0.23% hits; active = potentiation of 50% or more; inconclusive = 30% to 50%; inactive = 30% or less;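 note: compound concentration not given in the record; tested on top of an EC20 dose of dopamine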
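PathHunter D2 cells, attached overnight at 37 deg C, received compound in DMSO plus dopamine at EC20 (50 nM final) for 90 min at 37 deg C. Beta-arrestin recruitment was read as luminescence after 1 h with detection reagent at ambient temperature.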
CtBP-E1A inh: CtBP/E1A binding inhibition; AlphaScreen GST-E1A/His-CtBP binding, 1536-well; stronger effect = lower value; control for the full effect not named in the record; activity change, % (test concentration not listed); 340,000 compounds, 0.49% hits; AID 651724; in the data active means activity change below about -65%; inconclusive means about -30% to -65%; inactive means above about -30%; note: % is set by controls: 0 for no effect and ±100 for the full control effect
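Protein mix (5X: 125 nM each GST-E1A, His-CtBP) was incubated with pinned compound 2 h at 37 deg C in dark, in 50 mM Tris pH 8.0 buffer with 300 mM NaCl. Glutathione donor and nickel acceptor beads followed; AlphaScreen signal read after 1 h.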
* hit, by the source's call; ? = inconclusive; . = no result given; & = joins results of further samples; [ ] = another dose, or the depositor's remark.

gsp ag	Six1-Eya2 blk	D2 agonist	gsp antag	D2 PAM	CtBP-E1A inh	canonical_smiles
-4%[15.4 µM]	3	-0.3	6%	-1	6	NS(=O)(=O)c1ccc(NC(=O)CCCCCN2C(=O)c3ccccc3C2=O)cc1
2%	-21	-4.4	-19%	-28	.	COC(=O)/C(C#N)=C\c1c(OC)[nH]c2ccccc12
7%	2	-4.1	10%	5	12	Cc1ccc(C)c(C(=O)NC(C)c2ccc(-n3ccnc3)cc2)c1 (stereo not drawn)
-3%	21	-1.5	-9%	-19	.	COc1ccc2nnc(-c3ccc(C(F)(F)F)cc3)n2n1
-8%&51%	-9&-3	0.6&-1.2	4%	-24&-43	-2&-4	C=CCc1ccccc1OCC(O)CN1CCN(c2ccccc2OC)CC1 (stereo not drawn)
-17%	-7	-0.6	2%	4	-6	CC(C)COc1cccc(C(=O)Nc2ccc(S(=O)(=O)N3CCOCC3)cc2)c1
1%[15.4 µM]	3	-1.5	14%	-1	-23	CN(CC(=O)Nc1c(Cl)cccc1Cl)C(=O)c1cc2ccccc2cc1O
1%	5	1.0	3%	1	8	Cc1ccc(C(=O)N(c2c(C)n(C)n(-c3ccccc3)c2=O)C(C)C)cc1
12%	-3	-1.4	6%	-7	5	O=C(CCn1c(=S)[nH]c2ccccc2c1=O)NCC1CCCO1 (stereo not drawn)
-10%	4	1.0	-24%	-14	-14	COc1ccc(NC(=O)c2cc3c(s2)CCC3)cc1S(=O)(=O)N1CCOCC1
1%	0	-2.6	-3%	1	.	NC(=O)c1ccc(NC(=O)COC(=O)CCC(=O)c2ccc(Cl)cc2)cc1
-40%	-7	0.7	-10%	11	-10	Cc1c(C(=O)NCc2cccs2)oc2ccc(S(=O)(=O)N3CCOCC3)cc12
6%	3	-2.2	-19%	0	0	Cc1ccc(C(C)C)c(OCc2ccc(-c3nnco3)cc2)c1
9%	5	2.6	8%	-9	.	CCC(CCC(=O)NNC(=O)Cc1ccc([N+](=O)[O-])cc1)C(=O)O (stereo not drawn)
-12%	12	-2.4	6%	-2	3	COc1ccc(-c2nn(CCC#N)cc2C(=O)Nc2cccc(C(=O)O)c2)cc1OC
-1%[15.4 µM]	-12	4.1	8%	8	-3	CC1CCN(S(=O)(=O)c2ccc(NC(=O)c3ccncc3)cc2)CC1
.	5	-2.1	.	-1	2	CCCS(=O)(=O)NC(=O)C1(C)CCCN(C(=O)c2ccc(C(=O)OC)cc2)C1 (stereo not drawn)
-36%[inhibitor]	4	-0.2	-10%	-3	.	Cc1ccccc1S(=O)Cc1ccc(C(=O)NC2CC2)o1 (stereo not drawn)
13%	-3	0.4	3%	-2	4	CCCOc1ccc(/C=N\NC(=O)CCc2n[nH]c(=O)[nH]c2=O)cc1OC
3%[15.4 µM]	-2	0.8	-11%	-5	1	O=C(c1ccccc1F)N1CCN(c2ccc([N+](=O)[O-])c(NCc3cccnc3)c2)CC1
38%	3	-1.3	3%	-6	-1	COc1ccc(C(=O)NCC(=O)N/N=C/c2cn(C)c3ccccc23)cc1OC
3%	-1	0.6	.	.	2	CCC(C)C(CO)NCCCn1cnc2c(OC)ncnc21 (stereo not drawn)
?	6	-4.4	10%	-1	-7	O=C(NCc1ccc(F)cc1)c1cccs1
?	1	-9.7	.	-18	-2	CC(=O)c1ccc2c3c(ccc([N+](=O)[O-])c13)CC2
-5%	3	2.3	7%	-4	5	CC(=O)Nc1ccc(C(=O)NNC(=O)Cc2ccccc2)cc1
-32%[inhibitor]	-23	-19	3%	-7	0	COc1ccc(CCNCC(O)Cn2c3ccccc3c3ccccc32)cc1OC (stereo not drawn)
-2%[15.4 µM]	3	-2.8	-4%	4	-10	CCOC(=O)C1(CC2CCCCO2)CCN(S(=O)(=O)c2cc(C)cs2)CC1 (stereo not drawn)
-12%	12	-0.3	-15%	-10	9	O=S(=O)(c1ccc(F)c(Cl)c1)N1CCCC1
0%[15.4 µM]	2	-5.0	19%	-4	-13	O=C1CC(SC2=NCCS2)C(=O)N1c1ccc(Cl)cc1 (stereo not drawn)
29%	0	-7.4	6%	-18	-4	c1ccc(C2CNCCc3ccccc32)cc1 (stereo not drawn)

Some values from the list.
COc1ccc2nnc(-c3ccc(C(F)(F)F)cc3)n2n1 | D2 PAM: -19
CN(CC(=O)Nc1c(Cl)cccc1Cl)C(=O)c1cc2ccccc2cc1O | CtBP-E1A inh: -23
NS(=O)(=O)c1ccc(NC(=O)CCCCCN2C(=O)c3ccccc3C2=O)cc1 | D2 PAM: -1
COc1ccc(C(=O)NCC(=O)N/N=C/c2cn(C)c3ccccc23)cc1OC | Six1-Eya2 blk: 3
CC(=O)c1ccc2c3c(ccc([N+](=O)[O-])c13)CC2 | D2 agonist: -9.7

New compounds follow.
gsp ag	Six1-Eya2 blk	D2 agonist	gsp antag	D2 PAM	CtBP-E1A inh	canonical_smiles
.	-8	-0.8	5%	-6	-22	O=C(Cn1cnc2c(NC(=O)OCc3ccccc3)ncnc21)NCc1ccccn1
-59%[inhibitor]	-75*	-1.1	-12%	4	-76*	C=CCSc1nnc(-c2cc3c(-c4ccccc4)nn(C)c3s2)n1C
10%[15.4 µM]	-1	-5.1	-12%	-3	.	O=c1[nH]c(/C=C/c2cccnc2)c([N+](=O)[O-])c(=O)[nH]1
?	15	-3.3	16%	-13	38	Clc1ccc(OCCCCCN2CCOCC2)cc1
17%	4	0.2	-9%	-10	-5	Cc1nc(-c2ccc(NC(=O)c3ccccc3)cc2)cs1
-11%	-4	1.4	-9%	7	0	CCCc1[nH]nc2c1C(c1ccc(OC(=O)N3CCOCC3)c(OC)c1)C(C#N)=C(N)O2 (stereo not drawn)
-13%[15.4 µM]	14	-13	2%	-8	18	CC(=O)N1CCN(C(=S)Nc2ccc(SC(F)F)cc2)CC1
-17%	-1	-5.9	4%	2	6	Cc1ccc(S(=O)(=O)CCC(=O)OCC(=O)c2ccc(C)c(C)c2)cc1
26%	6	1.8	.	-5	2	CS(=O)(=O)c1ccc(Cl)c(NC(=O)CSc2nnc3n2CCCCC3)c1
8%[15.4 µM]	1	-2.1	-8%	-6	-1	CCCN(CCC)S(=O)(=O)c1ccc(C(=O)Nc2c(C)n(C)n(-c3ccccc3)c2=O)cc1
-23%	4	0.5	16%	-3	10	O=C(CN1CCN(CN2C(=O)NC3(CCCCCC3)C2=O)CC1)Nc1cccc(F)c1
-20%	3	4.4	9%	1	.	CC(=O)Nc1ccc(NC(=O)CCC(=O)Oc2ccc(C)cc2)cc1
-9%	-1	-3.4	8%	-4	0	CCN(CC)S(=O)(=O)c1ccc(S(=O)(=O)N2CCN(CCC#N)CC2)cc1
-3%	1	-2.0	9%	-11	0	COc1ccc(CC(=O)NNC(=O)CSc2nc(C)c(C)c(=O)[nH]2)cc1
-17%	7	-3.0	-15%	-5	6	Cc1ccc(N2CC(C(=O)N3CCCCCC3)CC2=O)cc1 (stereo not drawn)
?	9	-1.1	5%	-5	-1	Cc1cc(NC(=O)c2c(-c3ccccc3Cl)noc2C)no1
-7%	2	-4.3	15%	-9	-17	CCN(CC)c1nc(=S)nc(NC(C)(C)C)[nH]1
-1%[15.4 µM]	?	-2.2	-1%	-12	.	CCCCC(=O)NC(c1ccco1)c1cc(Cl)c2cccnc2c1O (stereo not drawn)
0%	-8	2.4	?	0	4	CC(=O)c1c(C)[nH]c(C(=O)CN2CCN(S(=O)(=O)c3ccccc3)CC2)c1C
-2%[15.4 µM]	-17	-1.3	-8%	-1	1	COc1ccc2nc(Cl)c(C3CC(c4ccco4)=NN3C(=O)CCCC(=O)O)cc2c1 (stereo not drawn)
.	10	-2.9	.	-4	-5	CSc1ccccc1NC(=O)C1(C)CCN1C(=O)CCC1CCCC1 (stereo not drawn)
15%	-4	-3.0	8%	-7	?	COc1ccc(-c2c(-c3cc(OC)cc(OC)c3)n(C)c3ccc(-c4ccc5[nH]ccc5c4)cc23)cc1
?	0	1.5	1%	-7	-7	Cc1cccc(C)c1OCc1nnc(SCC(=O)Nc2nccs2)n1-c1ccccc1
6%	0	-1.2	-1%	19	4	COc1ccc(CCN(C)C(=O)c2cccc(S(=O)(=O)NCc3ccccc3)c2)cc1OC
21%	2	4.0	5%	2	5	COc1ccc(NC(=O)CS(=O)CC(=O)Nc2ccc(-n3cnnn3)c(C)c2)cc1 (stereo not drawn)
1%	-4	3.8	2%	-9	-11	N#CCC(=N)N1CCN(c2ccc(Cl)cc2)CC1
?	-8	12	0%	-3	-8	C/C(=N\Nc1ccc(F)cc1F)c1ccc(N2CCOCC2)cc1
10%	-1	1.3	1%	-12	3	O=C(N/C(=C/c1ccc(Br)cc1)c1nc2ccccc2[nH]1)c1ccco1
15%	6	0.0	?	-3	3	O=C(NOC(=O)c1ccccc1F)c1ccc(OC(F)F)cc1
24%	45	-3.8	8%	-13	.	c1ccc(C2=NN(c3ccccc3)CC2)cc1

Carrying on:
gsp ag	Six1-Eya2 blk	D2 agonist	gsp antag	D2 PAM	CtBP-E1A inh	canonical_smiles
-10%	0	-5.2	7%	-5	10	Cc1ccc(CNC(=O)C2(NC(=O)Nc3ccc(C)cc3)CCCCC2)cc1
?	-25	-1.8	7%	-13	-11	CC(=O)Oc1cc(OC(C)=O)c2c(C)cc(=O)oc2c1
1%	4	-5.0	-11%	-13	2	CC(C)c1ccc(C2=C(O)c3ccccc3C(=O)C2=O)cc1
-12%	-4	-1.2	-5%	-8	2	CC(=O)Nc1ccc(NC(=O)C(C)OC(=O)CCC(=O)c2ccc(F)cc2)cc1 (stereo not drawn)

Ordered by value in D2 agonist (smallest number first): some entries from above.
gsp ag	Six1-Eya2 blk	D2 agonist	gsp antag	D2 PAM	CtBP-E1A inh	canonical_smiles
-10%	0	-5.2	7%	-5	10	Cc1ccc(CNC(=O)C2(NC(=O)Nc3ccc(C)cc3)CCCCC2)cc1
1%	4	-5.0	-11%	-13	2	CC(C)c1ccc(C2=C(O)c3ccccc3C(=O)C2=O)cc1
-12%	-4	-1.2	-5%	-8	2	CC(=O)Nc1ccc(NC(=O)C(C)OC(=O)CCC(=O)c2ccc(F)cc2)cc1 (stereo not drawn)
